UUG fidelity: modulators of yeast start codon fidelity, primary screen, whole organism, S. cerevisiae, single point, plate reader | S. cerevisiae UUG-firefly luciferase reporter, luminescence/redox ratio | activity score, % at 18.7 µM | hit rate 0.13% among 350,000;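 active = replicate mean at a twofold rise or more, about +100% in these data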;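 note: firefly luciferase made from a UUG start codon reports start codon fidelity; reporter light over untreated wells divided by growth signal over untreated wells; some hits fall short of that in this replicate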
MT1-MMP act inh: blockers of MT1-MMP proenzyme processing, primary screen, HT1080 RFP-PRO-GFP cells, GFP/RFP fluorescence. Matrix metalloproteinase-14 (Homo sapiens), P50281. GFP/RFP ratio fluorescence, overnight; percent of plate control window, DMSO zero. GFP/RFP ratio change, % at 20 µM. hit rate 0.061% among 360,000;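 active = GFP/RFP ratio change of at least 30% with cell ATP level not reduced by more than half and red fluorescence within 50% of control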; note: strong numbers were not always called active
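Material – HT1080 RFP-PRO-GFP cells · Control set – DMSO wells and RFP-L50D-GFP cells · Incubation – overnight cell settling, then overnight compound exposure, 37 °C, 5% CO2 · Compound dosing – single-point 20 µM compound, 1% DMSO · Read-out – GFP/RFP fluorescence ratio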
eIF4H FP inh: human eIF4H binding inhibitors, primary screen, translation initiation inhibitor project, biochemical, uHTS, fluorescence polarization | Eukaryotic translation initiation factor 4H (Homo sapiens), Q15056 | eIF4H fluorescence polarization binding assay | inhibition, % at 35 µM | hit rate 0.94% among 290,000 | AID 2012, 2009;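 active = 50% or more with normal probe brightness, or confirmed in later tests; inconclusive = above 50% with abnormal brightness, or retests that disagree; inactive = below 50% or failed in later tests; about a fifth of its hits are not listed in these tables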;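 note: calls also rest on retests at 20 µM and on dose response follow-up; 0% = protein and probe with vehicle and 100% = probe without protein; strong numbers were not always called active; many hits fall short of the cut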
CSC inhib: cancer stem cell viability inhibitors, primary screen, luminescence. inhibition, % at 7.5 µM. hit rate 1.1% among 300,000. cancer stem cell-like cells viability;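 active = mean at 75% or more and at least half the replicates too; inconclusive = mean and replicates disagree; tested in HMLE shEcad cells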;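 note: 0% = median of negative and 100% = median of positive control wells; the first replicate is given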
Rce1 inhib: yeast Rce1p protease inhibitors, primary screen, biochemical, fluorescence, cell-free homogeneous; CAAX prenyl protease 2 (Saccharomyces cerevisiae (strain ATCC 204508 / S288c)), Q03530; yeast membranes, quenched prenylated peptide cleavage fluorescence; calls only; hit rate 0.27% among 290,000; AID 2563, 2010;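 active = fall in fluorescence gain of 50% or more versus controls, with final raw signal at or below 3038400; inconclusive = same 50% fall but final raw signal above 3038400; inactive = fall in fluorescence gain under 50%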;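 note: plate controls were neutral control wells for no effect and wells lacking membranes for full effect; tested at 10 µM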
Target sequence (Q03530 whole entry, looked up): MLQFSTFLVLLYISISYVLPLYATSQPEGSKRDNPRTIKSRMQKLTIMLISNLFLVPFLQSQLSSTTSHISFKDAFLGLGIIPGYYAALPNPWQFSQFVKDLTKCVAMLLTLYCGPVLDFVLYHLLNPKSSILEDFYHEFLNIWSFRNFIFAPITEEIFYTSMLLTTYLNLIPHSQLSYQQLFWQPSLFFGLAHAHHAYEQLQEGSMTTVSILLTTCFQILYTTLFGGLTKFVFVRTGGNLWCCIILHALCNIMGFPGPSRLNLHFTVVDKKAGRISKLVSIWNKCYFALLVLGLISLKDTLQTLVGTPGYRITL
HIV Env fusion: inhibitors of HIV-1 Env-driven cell-cell fusion, primary screen, HeLa-JRFL effector, CEM21 target cells, luciferase | inhibition, % at 12.3 µM | hit rate 1.1% among 360,000;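 active = mean replicate inhibition score of at least 50 and every replicate individually at or above 50; inconclusive = only one of the two criteria met; inactive = mean below 50 and not all replicates reaching 50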;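 note: 0% = plate neutral controls and 100% = maraviroc near 300 nM; one replicate is shown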
PABP polyA inh: PABP poly(A) RNA binding inhibitors, primary screen, biochemical, fluorescence polarization, uHTS | hit rate 1% among 290,000 | AID 2014, 2009 | inhibition, % at 35 µM | Polyadenylate-binding protein 1 (Homo sapiens), P11940;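 active = 50% or more with normal probe brightness, or confirmed in later tests; inconclusive = above 50% with abnormal brightness, or retests that disagree; inactive = below 50% or failed in later tests; about a fifth of its hits are not listed in these tables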;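 note: calls also rest on retests at 20 µM and on dose response follow-up; controls were probe without protein and protein plus probe with vehicle; some compounds called inactive have numbers as strong as hits; many hits fall short of the cut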
MT1-MMP act inh RFP: second read-out of MT1-MMP act inh, no call of its own (marks repeat the call); RFP signal change, %; measured here: RFP expression control read;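 0 = vehicle wells; hits needed this value within 50% of zero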
An asterisk follows results filed as active; i = inactive; u = inconclusive; x = no result given.

SMILES	UUG fidelity	MT1-MMP act inh	MT1-MMP act inh RFP	eIF4H FP inh	CSC inhib	Rce1 inhib	HIV Env fusion	PABP polyA inh
Cc1ccc(-c2sc(-c3cccnc3)nc2CC(=O)O)cc1	x	5	4	4	-12	i	-5	6
CC(C)(C)c1ccc(/C=N/NC(=O)C(=O)NCCCN2CCOCC2)cc1	x	3	3	3	-5	i	16	-2
CCN1CCCC1CNC(=O)c1cc(S(=O)(=O)CC)c(N)cc1OC (centres undefined)	x	x	x	4	-4	i	x	2
CC(NC(=S)N1CCN(c2ccccc2)CC1)c1ccccc1 (centres undefined)	-12	2	-2	-6	6	i	15	-13
COc1ccccc1NC1CCCCC1NS(=O)(=O)c1ccc(C)cc1 (centres undefined)	0	2	-5	-6	x	i	5	-4
Cc1nc2ccccn2c1C(=O)NC1CCCCC1	-3	0	3	1	-11	i	x	-8
CC(C)OCCCNC(=O)c1ccc(NC(=O)C2CCCO2)cc1 (centres undefined)	0	0	0	-3	-13	i	4	-2
COc1ccc(NC(=O)CSc2nnc(Cn3c(=O)sc4ccccc43)n2C)c(OC)c1	-17	-2	0	-1	x	i	12	-1
CCN(CC)S(=O)(=O)c1ccc(N2CCOCC2)c(NS(=O)(=O)c2ccc(C(C)C)cc2)c1	3	-5	-4	11	4	i	-12	6
COc1ccc(-c2noc(COc3ccc4ccccc4c3Br)n2)cc1OC	-12	6	0	-6	-3	i	-45	1
CCOC(=O)c1sc(NC(=O)Nc2ccccc2F)nc1C	-23	1	4	-1	2	i	-248	-9
O=C(/C=C/c1ccco1)Oc1cccc2cccnc12	x	3	6	16	22	i	4	9
O=C(COc1ccc(Cl)cc1Cl)Nc1ccc(CN2CCOCC2)cc1	-4	2	-17	-9	-28	i	2	-8
Cc1[nH]n2c(=O)cc(C(C)(C)C)nc2c1-c1ccccc1	0	12	1	5	0	i	x	1
COc1ccc(-c2cccc(NS(=O)(=O)c3cc([N+](=O)[O-])ccc3C)c2)nn1	-2	0	-1	x	5	i	x	x
O=C(Cn1cnc([N+](=O)[O-])n1)N/N=C/c1cccc2ccccc12	x	4	4	-4	0	i	17	12
Cc1cccc2cc3c(NC(=O)C(C)C)nn(C)c3nc12	-11	-1	-2	-10	-2	i	x	6
COc1ccc(-c2ocnc2C(=O)N2CCN(C(c3ccccc3)c3ccccc3)CC2)cc1	3	-4	-1	9	11	i	-6	7
Cc1ccc(C(O)Cn2cc([N+](=O)[O-])nc2C)cc1 (centres undefined)	-13	-2	4	-7	-12	i	-16	2
CCN1/C(=C\c2ccc3ccccc3[n+]2CC)Sc2cc(C)ccc21	x	-90	17	-13	89*	i	-13	-80
O=C(c1cccc([N+](=O)[O-])c1)N(c1ccccn1)c1ccccn1	x	-5	2	-19	-4	i	x	-6
COc1ccccc1NC(=O)C(=O)Nc1ccc2c(c1)N(C(=O)C1CC1)CCC2	-5	-3	-5	x	x	i	-9	x
COC(=O)Cc1cc(=O)n2[nH]c(C)c(-c3ccccc3)c2n1	-21	8	8	2	-4	i	x	-13
CCCCNC(=O)CSc1nc2cc3c(cc2c(=O)n1CCCC(=O)NCCc1ccc(OC)c(OC)c1)OCO3	x	-1	0	5	6	i	1	48
Cc1cc(F)ccc1NCc1ccncc1	-16	-1	3	2	1	i	x	4
CC(C)C(NS(=O)(=O)c1cccc2nsnc12)C(=O)NCc1ccc2c(c1)OCO2 (centres undefined)	-16	-1	1	3	-4	i	1	-10
O=C(NCCCN1CCCC1)c1ccc2c(Cl)c3c(nc2c1)CCCC3	x	5	0	4	7	i	6	-7
COc1ccc(CNC(=O)COC(=O)c2cccc(S(=O)(=O)N3CCOCC3)c2)cc1	-17	-1	3	x	7	x	x	x
COc1ccccc1N1C(=O)[C@@H]2[C@H](C1=O)[C@H](C(=O)c1ccc(OC(C)=O)cc1)N1N=CC=C[C@@H]21	x	x	x	17	-9	i	-6	12
CCC(C)(C)NC(=O)C(c1cccn1C)N(C(=O)Cn1nnc2ccccc21)c1ccc(OC)cc1 (centres undefined)	-12	-4	-6	-2	-3	i	x	-3
CCCN1Cc2cccc(C(=O)N3CCN(c4ccc(F)cc4)CC3)c2C1=O	x	3	4	0	-9	i	-19	-3
COc1ccc(CNC(=O)c2noc(C)c2[N+](=O)[O-])cc1	x	5	3	5	x	i	2	0
CC1CCCC(NC(=O)COC(=O)c2ccccc2Sc2ccccc2C#N)C1C (centres undefined)	2	-1	3	-3	x	i	x	-4
COc1cc(CN2CCN(S(=O)(=O)c3ccc(NC(C)=O)cc3)CC2)cc(OC)c1O	-11	-3	3	-6	0	i	x	10
CCCCNC(=O)c1ccc(NS(=O)(=O)c2ccc3[nH]c(=O)[nH]c3c2)cc1	-14	0	0	4	0	i	-260	-5
O=C(Cc1ccc2ccccc2c1)NC(Cc1ccccc1)C(=O)O (centres undefined)	-27	6	5	x	x	x	13	x
CCN1CCN(Cc2ccc(NC(=O)c3ccc(C)c(NC(=O)c4cc(-c5ccc(Br)cc5)n[nH]4)c3)cc2C(F)(F)F)CC1	-6	16	-5	-26	u	i	44	-16
CCC(CO)Nc1ncnc2onc(-c3ccc(F)cc3)c12 (centres undefined)	-18	-2	1	-2	-14	i	3	3
COc1ccc(Br)cc1[C@H]1[C@@H]2C=CCC[C@@]2(C)C(=O)N1Cc1ccccc1	-5	2	-9	-4	39	i	28	-2
CCOc1ccc2nc(NC(=O)Cn3[nH]c(=O)c4ccccc4c3=O)sc2c1	-24	-4	-1	37	11	i	-24	3

The closing 2 entries of the section before come first, to join the parts.
SMILES	UUG fidelity	MT1-MMP act inh	MT1-MMP act inh RFP	eIF4H FP inh	CSC inhib	Rce1 inhib	HIV Env fusion	PABP polyA inh
COc1ccc(Br)cc1[C@H]1[C@@H]2C=CCC[C@@]2(C)C(=O)N1Cc1ccccc1	-5	2	-9	-4	39	i	28	-2
CCOc1ccc2nc(NC(=O)Cn3[nH]c(=O)c4ccccc4c3=O)sc2c1	-24	-4	-1	37	11	i	-24	3
CC(C)OC(=O)c1c(NC(=O)c2ccco2)sc2c1CCCC2	-4	-2	-1	2	2	i	10	4
COCCOCCOCCC(=O)NC1CC2CCC1(C)C2(C)C (centres undefined)	x	5	1	-9	-2	i	15	-7
COc1cc(Cl)cc(C2NC(=S)NC(c3ccccc3)=C2C(C)=O)c1OCC(=O)O (centres undefined)	x	3	2	0	-14	i	-1	8
CCc1cccc(NC(=O)CCNS(=O)(=O)c2cccc3nonc23)c1	x	5	7	-4	-15	x	2	4
COc1ccc2[nH]c3c(c2c1)CCN1C(=O)C(CC(=O)NCCc2ccccn2)C[C@H](C(=O)N2CCCCC2)[C@@]31C (some centres undefined)	-15	2	3	x	x	x	-7	x
NC(=O)C1CCN(Cc2nc3cc(Cl)ccc3c(=O)[nH]2)CC1	-5	0	2	-3	44	i	x	11
CCOC(=O)C1(CC2CC2)CCN(C(=O)c2cc(OC)nc3ccccc23)CC1	3	-8	-6	-10	-6	x	-24	0
Cc1ccc(F)cc1NC(=O)c1cccc(N(C)C)c1	7	1	0	7	-6	i	26	-11
CC(C)C[C@H](NC(=O)N1CCn2c1nc1ccccc12)C(=O)NC1CCCCC1	7	2	0	6	-10	i	7	5
COc1cccc(-c2c(C(=O)N/N=C(\C)c3ccncc3)nnn2-c2nonc2N)c1	-7	-5	0	-6	-11	i	-1	1
Cc1cc(NS(=O)(=O)c2ccc(NC(=O)COc3ccc(Cl)c(C)c3)cc2)no1	-26	4	1	-7	x	i	-82	2
COc1ccccc1C1c2ccc3ccccc3c2Oc2ncn(CCN(C)C)c(=N)c21 (centres undefined)	-4	-14	-16	-3	85*	i	-15	-3
CC(=O)c1c(C)nc2ccc(Br)cc2c1-c1ccccc1	x	-6	-6	1	62	i	9	8
O=C(Nc1ccc(C(F)(F)F)cc1)c1cccnc1N1CCOCC1	x	-2	-1	1	5	i	-15	1
CCOC(=O)N1CCN(Cc2ccccn2)CC1	-24	3	0	5	-13	i	19	16
O=c1[nH]c(NCCO)nc2ncn(Cc3ccccc3)c12	27	11	6	-6	-11	i	-18	-11
O=C(Nc1cc(S(=O)(=O)N2CCOCC2)ccc1N1CCCC1)c1cc(=O)[nH]c2ccccc12	5	-4	0	-1	-5	i	-14	24
CCOC(=O)c1ccc(NC(=O)c2cc3c(s2)CCC3)cc1	x	3	-18	-9	5	i	3	0
Cc1c(NS(=O)(=O)c2ccc(F)cc2)c(=O)n(-c2ccccc2)n1C	-21	1	4	5	-9	i	-1	6

Exported bar-delimited: 4 of the compounds above.
Molecule | UUG fidelity | MT1-MMP act inh | MT1-MMP act inh RFP | eIF4H FP inh | CSC inhib | Rce1 inhib | HIV Env fusion | PABP polyA inh
O=C(Nc1cc(S(=O)(=O)N2CCOCC2)ccc1N1CCCC1)c1cc(=O)[nH]c2ccccc12 | 5 | -4 | 0 | -1 | -5 | i | -14 | 24
CCOC(=O)C1(CC2CC2)CCN(C(=O)c2cc(OC)nc3ccccc23)CC1 | 3 | -8 | -6 | -10 | -6 | x | -24 | 0
COCCOCCOCCC(=O)NC1CC2CCC1(C)C2(C)C (centres undefined) | x | 5 | 1 | -9 | -2 | i | 15 | -7
CC(=O)c1c(C)nc2ccc(Br)cc2c1-c1ccccc1 | x | -6 | -6 | 1 | 62 | i | 9 | 8

Sorted by molecular weight (rising): some entries from above
SMILES	UUG fidelity	MT1-MMP act inh	MT1-MMP act inh RFP	eIF4H FP inh	CSC inhib	Rce1 inhib	HIV Env fusion	PABP polyA inh
CC(=O)c1c(C)nc2ccc(Br)cc2c1-c1ccccc1	x	-6	-6	1	62	i	9	8
CCOC(=O)C1(CC2CC2)CCN(C(=O)c2cc(OC)nc3ccccc23)CC1	3	-8	-6	-10	-6	x	-24	0
CC(C)C[C@H](NC(=O)N1CCn2c1nc1ccccc12)C(=O)NC1CCCCC1	7	2	0	6	-10	i	7	5
COc1cc(Cl)cc(C2NC(=S)NC(c3ccccc3)=C2C(C)=O)c1OCC(=O)O (centres undefined)	x	3	2	0	-14	i	-1	8
O=C(Nc1cc(S(=O)(=O)N2CCOCC2)ccc1N1CCCC1)c1cc(=O)[nH]c2ccccc12	5	-4	0	-1	-5	i	-14	24

Screening data deposited in PubChem by several laboratories.

The list is partial (hit frequency here may not be typical).
